HPGD inh – qHTS Assay for Inhibitors of HPGD (15-Hydroxyprostaglandin Dehydrogenase); 15-hydroxyprostaglandin dehydrogenase [NAD(+)] (Homo sapiens), P15428; purified HPGD, NADH fluorescence kinetic, PGE2 substrate; Potency, µM, for the others: at the top dose activity change, negative = inhibition, usual class: inhibitors; 150,000 compounds, 4.3% hits; AID 894, 2007; active = well fitted inhibition curve with a large enough effect (not every such curve was filed as active); inconclusive = small, poorly fitted or top-dose-only effect, or another doubt; inactive = no such curve, though single readings can be large or run the other way;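 note: top concentration of the series not given in the record; plate controls included wells without enzyme; inactives centre near -10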
Target sequence (P15428 whole entry, looked up): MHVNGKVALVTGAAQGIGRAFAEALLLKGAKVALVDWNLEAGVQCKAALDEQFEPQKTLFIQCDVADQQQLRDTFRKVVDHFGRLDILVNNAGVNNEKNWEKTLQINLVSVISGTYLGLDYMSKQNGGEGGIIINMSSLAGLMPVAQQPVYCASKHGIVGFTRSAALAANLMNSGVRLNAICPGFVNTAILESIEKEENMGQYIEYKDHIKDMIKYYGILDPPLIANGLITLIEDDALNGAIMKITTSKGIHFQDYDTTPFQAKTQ
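NADH formation kinetics: reaction with 30 uM PGE2 and 1 mM NAD+ (final), 20 nM enzyme, Tris-HCl pH 8 with Tween 20, after 15 min compound preincubation at room temperature. Fluorescence change, last versus first of five reads.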
Starred values were filed as active, the others as inactive; u = inconclusive; & = joins results of further samples. % is set by controls: 0 for no effect and ±100 for the full control effect; potency is the fitted concentration of half-maximal effect. A portion of the library (hit frequency here may not be typical).

SMILES	HPGD inh
CCCCn1c(SCC(=O)NCC2CCCO2)nc2ccc(N3CCOCC3)cc2c1=O (stereo unspecified)	u
COc1ccc(N2CCN(Cc3nc4ccccc4c(=O)[nH]3)CC2)cc1	-12%
Cc1c(Cl)cccc1NC(=O)COc1ccc(S(=O)(=O)N2CCOCC2)cc1	-1%
COC(=O)c1c(NC(=O)CN2CCC3(O)CCCCC3C2c2cc(OC)ccc2OC)sc(C)c1C (stereo unspecified)	u
O=C(CN1C(=O)c2ccccc2S1(=O)=O)Nc1ccccc1C(=O)NCc1ccco1	1%
CCn1c(=O)n(CC)c2cc(S(N)(=O)=O)c(C)cc21	-4%
Cn1cc(CC(=O)N2CCN(c3ccc(Cl)cc3)CC2)c2ccccc21	-4%
C=C(C)C1CC=C(C)/C(=N/NC(=O)COc2ccc(Cl)cc2)C1 (stereo unspecified)	-5%
CC(C)(C)n1cnc2cc(NS(=O)(=O)c3ccccc3)ccc21	u
CC1CCN(C(=O)CSc2nnc(Cc3cc(=O)[nH]c(=O)[nH]3)n2-c2ccc(Cl)cc2)CC1	1%
S=C(N/N=C/c1ccc(Cl)cc1)N1CCOCC1	-14%
CC(C)C(=O)Nc1ccc(C(=O)NC2CCSC2=O)cc1 (stereo unspecified)	-5%

A different layout for part of the listing above:
HPGD inh | SMILES
-4% | Cn1cc(CC(=O)N2CCN(c3ccc(Cl)cc3)CC2)c2ccccc21
-5% | C=C(C)C1CC=C(C)/C(=N/NC(=O)COc2ccc(Cl)cc2)C1 (stereo unspecified)
u | CC(C)(C)n1cnc2cc(NS(=O)(=O)c3ccccc3)ccc21

Next part:
SMILES	HPGD inh
Cc1ccc(C(=O)O)cc1NC(=O)c1cccs1	-10%
O=c1nc2n(c3cc(Cl)c(S(=O)(=O)N4CCOCC4)cc13)CCCCC2	-13%
COc1ccc(CC(=O)Nc2ccc(S(=O)(=O)NCC3CCCO3)cc2)cc1 (stereo unspecified)	22µM*
Cc1ccc2c(c1)-c1ccccc1S(=O)(=O)N2	-23%
Cc1ccc(C)c(N2CCN(C(=O)c3cc4ccccc4oc3=O)CC2)c1	-7%
O=C(CN1C(=O)COc2ccccc21)N(Cc1cccnc1)Cc1cccc(F)c1	-7%
CC(=O)Nc1cc(C(=O)N2CCCC2)ccc1Sc1ccc(Cl)cc1	-8%
COC(=O)N(C)c1nc2ccccc2s1	-9%
CCOC(=O)c1c(C)[nH]c(C(=O)COC(=O)CCSc2ccccc2)c1C	-9%
O=C(Nc1ccc(-n2nncc2-c2ccco2)cc1)c1cc2ccccc2oc1=O	-18%
COc1ccc(OC)c(-n2c(SCC(=O)N3CCc4ccccc43)nc3c(c2=O)SCC3)c1	-15%
OC(c1ccccn1)(c1ccccn1)c1ccccn1	-14%

Brought forward from above: five entries; new compounds follow.
SMILES	HPGD inh
COC(=O)N(C)c1nc2ccccc2s1	-9%
CCOC(=O)c1c(C)[nH]c(C(=O)COC(=O)CCSc2ccccc2)c1C	-9%
O=C(Nc1ccc(-n2nncc2-c2ccco2)cc1)c1cc2ccccc2oc1=O	-18%
COc1ccc(OC)c(-n2c(SCC(=O)N3CCc4ccccc43)nc3c(c2=O)SCC3)c1	-15%
OC(c1ccccn1)(c1ccccn1)c1ccccn1	-14%
CN1C(=O)CSc2ccc(C(=O)O)cc21	-3%
COc1ccc(C(=O)NC(=S)NC(C)C)cc1Br	-5%
CN(Cc1ccccc1)C(=O)COC(=O)c1ccc2c(c1)OCO2	-14%
COc1ccc(C(=O)CSc2nnc(-c3ccco3)n2CC2CCCO2)cc1 (stereo unspecified)	-9%
CCn1c2ccc(F)cc2c2nnc(NN)nc21	-11%
Cc1n[nH]c(C)c1N1C(=O)c2cccc3cc(Br)cc(c23)C1=O	-20%
CNC(=O)CSc1nnnn1CCCOC	-8%
COc1ccccc1CNC(=O)c1cccc(C)c1[N+](=O)[O-]	18µM*
O=C(O)CN(CCN(CC(=O)O)CC(=O)O)CC(=O)O	-11%&-8%
Cc1ccc(CNC(=O)c2cc3c(=O)n(C)c4ccccc4c3n2C)o1	-14%
NC1=NC2=C(CCCC2)C2(CCCCC2)S1	-15%
CCCc1nc(SCC(=O)c2ccc(OC)cc2)c2c(=O)n(C)c(=O)n(C)c2n1	-5%
O=C(NC(=S)NC1CCSC1=O)c1cccs1 (stereo unspecified)	-2%
COC(C(=O)Nc1ccc(S(=O)(=O)Nc2ccc(C)c(C)c2)cc1)c1ccccc1 (stereo unspecified)	-6%
CCCc1ncc(C(=O)c2ccc(OC)cc2)n1C	0%
COc1ccc(C(=O)NCC(=O)n2nc(C)cc2C)cc1OC	-2%
Cc1nc(C#N)c(N/N=C/c2c(F)cccc2Cl)o1	-10%
O=C(Nc1ncc2c(n1)-c1ccccc1OC2)c1ccc(Cl)cc1Cl	u
CCc1cc2c(cc(C(=O)O)n2C)s1	-18%
CC(C)n1c(SCC(=O)Nc2ccc3c(c2)OCO3)nc2c1c(=O)n(C)c(=O)n2C	-1%
CCOC(=O)CSc1nnc(-c2ccc(OC)cc2OC)o1	-9%
CCOC(=O)C(C)Oc1ccc2c(C)cc(=O)oc2c1C(C)=O (stereo unspecified)	-20%
CCc1nnc(NC(=O)c2ccc(S(=O)(=O)NC3CCCCC3)cc2)s1	-14%
COC(=O)CC1c2ccccc2C=C(C)N1C(=O)OC (stereo unspecified)	-8%&-8%
COC(=O)n1c(=O)oc2cc(S(=O)(=O)N3CCOCC3)ccc21	-7%
NC(=O)C1CCN(C(=O)C23CC4CC(CC(C4)C2)C3)CC1	-7%
Cc1cc(C(=O)N/N=C/c2ccc(C)o2)c2ccccc2n1	u
COCCNc1ncnc2c1cnn2Cc1ccc(Cl)cc1	-7%
OCc1ccnc(Cl)c1	-1%
Clc1ccc(OCCn2c(-c3ccco3)nc3ccccc32)cc1	u
CC(C)(C)CC(=O)NC(=S)N1CCCCCC1	-5%
CC(C)(O)C#Cc1ccc(C(=O)NCc2cccs2)s1	-9%
COc1ccc(NC(=O)CSc2nnc(C)n2Cc2ccccc2)cc1	-13%
CCC(c1c(C)n(C)n(-c2ccccc2)c1=O)c1c(C)n(C)n(-c2ccccc2)c1=O	-9%
O=C(c1cc2nc(-c3ccco3)cc(C(F)(F)F)n2n1)N1CCCCCC1	u
Cc1cc(C(F)(F)F)nn1CC(=O)NNC(=S)Nc1cccc(Cl)c1	-5%

Given with bars between the fields: part of the list above
structure | HPGD inh
COCCNc1ncnc2c1cnn2Cc1ccc(Cl)cc1 | -7%
OCc1ccnc(Cl)c1 | -1%
Clc1ccc(OCCn2c(-c3ccco3)nc3ccccc32)cc1 | u
CC(C)(C)CC(=O)NC(=S)N1CCCCCC1 | -5%

(more compounds)
SMILES	HPGD inh
O=C1Nc2ccccc2S/C1=C/Nc1cccc(Cl)c1	-13%
O=C1C2=C(Nc3ccccc3SC2c2ccco2)c2ccccc21 (stereo unspecified)	-28%
O=C(Nc1nccs1)c1cccc(N2C(=O)c3cccc4c([N+](=O)[O-])ccc(c34)C2=O)c1	-15%
Cc1cc2oc(=O)cc(Cn3nnc(-c4ccc(Cl)cc4)n3)c2cc1C(C)C	u
C=CCNC(=O)c1c(-c2c(F)cccc2Cl)noc1C	-3%
CC1N(C)c2cc(NC(=O)c3ccco3)ccc2C1(C)C (stereo unspecified)	-6%
O=C(C1CCN(c2nnc(-n3cccc3)s2)CC1)N1CCOCC1	-20%
CC(C)(C)c1cc(O)c(C(C)(C)C)cc1O	-15%
CC(C)(C)NC(=O)C(=O)NNC(=O)COc1ccc(Br)cc1	-1%
COc1ccc2cc(CN(CCO)C(=O)c3ccc(Br)cc3)c(=O)[nH]c2c1	-12%
CCCCCCC1CCC(C(=O)Nn2c(C)nc3ccccc3c2=O)CC1 (stereo unspecified)	-7%
CC1=CC(=O)C2C(C)(C)CCC[C@@]2(C)[C@@]1(O)CCc1ccoc1 (stereo partly specified)	-9%
CCOC(=O)N/N=C(\C)c1ccc(C)c([N+](=O)[O-])c1	u
COc1ccc(CNC(=O)C(=O)NCC(c2ccco2)N2CCOCC2)cc1 (stereo unspecified)	-10%
O=C(NC1CCCCCC1)c1ccc(CN2CCOCC2)cc1	-2%
CCN(CC)C(=O)COc1ccc2oc(C)c(C(=O)OC)c2c1	-8%
CCOC(=O)N1CCN(C(=O)C2COc3ccccc3O2)CC1 (stereo unspecified)	-4%
CCOc1ccccc1-n1c(SCC(=O)NC)nnc1-c1ccco1	-5%
Cc1ccc(-n2c3c(cc(C(=O)NCc4ccco4)c2=O)C(=O)CC(C)(C)C3)cc1	-26%
CCc1ccc(OCC(=O)Nc2ccc3c(c2)COC3=O)cc1	-15%
Oc1ccc(N=C/C=C/c2cccc(Br)c2)cc1-c1nc2ccccc2s1	-24%
COc1cc2c(cc1C1NC(=S)NC(C)=C1C(=O)N(C)C)CCCC2 (stereo unspecified)	-9%
CC(=O)/C(=N\N=C(N)N)c1ccccc1	-12%
Cn1cccc1C(C(=O)NC1CCCCC1)N(C(=O)Cc1cccs1)c1ccc2c(c1)OCO2 (stereo unspecified)	-8%

With a hit mark in HPGD inh, among the entries above:
SMILES	HPGD inh
COc1ccc(CC(=O)Nc2ccc(S(=O)(=O)NCC3CCCO3)cc2)cc1 (stereo unspecified)	22µM*
COc1ccccc1CNC(=O)c1cccc(C)c1[N+](=O)[O-]	18µM*

Following part:
SMILES	HPGD inh
CC1(C)CC2CC(C)(CN2C(=O)COc2cccc3ccccc23)C1 (stereo unspecified)	32µM*
Cc1ccc2ccccc2c1COC(=O)c1nonc1N	-4%
COc1ccc([N+](=O)[O-])cc1NC(=O)C1CCCO1 (stereo unspecified)	-5%
Cc1cc(NC(=O)c2cccnc2)ccc1NC(=O)c1ccco1	-8%
COc1cc(-c2nnc(SCc3c(F)cccc3Cl)o2)cc(OC)c1OC	u
O=C(Cn1ccc(C(F)(F)F)n1)N/N=C/c1cccs1	-3%
CC1CCCCN1S(=O)(=O)c1ccc(S(=O)(=O)N2CCN(c3ccccc3)CC2)cc1 (stereo unspecified)	-3%
C=CCNc1nc(N)c(C(=C(C#N)C#N)c2ccccc2)s1	u
CN(C)c1nc(Oc2ccc(/C=N/O)cc2)nc(N(C)C)n1	-3%
Cn1ncc(Br)c1C(=O)NC(=S)N1CCN(c2ccccn2)CC1	-10%
Cc1ccc(C)c(N(C(=O)Cn2nnc(-c3cccs3)n2)C(C(=O)NC2CC2)c2ccc(C)o2)c1 (stereo unspecified)	-6%
CCOC(=O)CSc1ccc(-c2nc3cc(C)c(C)cc3[nH]2)cn1	u
CC1=C(C(=O)OC2CCCCC2)C(c2ccco2)n2ncnc2N1 (stereo unspecified)	-4%
Cn1c(=O)oc2cc(S(=O)(=O)Nc3cccc(C(=O)O)c3)ccc21	-6%
COC(=O)N/N=C\c1cc(Br)ccc1OCc1ccccc1	-5%
Cn1c(-c2ccc(C(C)(C)C)cc2)n[nH]c1=S	u
CC(C)c1ccc(N2CCN(C(=O)c3ccccc3NC(=O)/C=C(\C(=O)O)c3ccccc3)CC2)cc1	35µM*
CCCCNC(=O)Nc1cnn(CC)c1C(N)=O	-6%
Cc1cnc(C(=O)OCC(=O)Nc2ccc(Cl)cc2)cn1	-17%
c1cc2ccc3ccc(CN4CCOCC4)c4ccc(c1)c2c34	-29%
O=c1oc2ccccc2c(NCCc2ccccc2)c1[N+](=O)[O-]	-23%
COc1cc(O)c(C(=O)c2ccccc2)cc1S(=O)(=O)O	-1%
CCc1ccc(NC(=O)c2ccc(Cn3cc([N+](=O)[O-])cn3)cc2)cc1	0%
Cc1ccc(N=Cc2c(O)n(-c3nccs3)c(=O)c3ccccc23)cc1	-15%
COc1ccc(-c2nnnn2-c2ccccc2OC)cc1	1%
C[N+]1(CC(=O)OCCCc2ccccc2)CCOCC1	-3%
Cc1cc(=O)oc2cc(OCC(=O)N3CCCC(C)C3)ccc12 (stereo unspecified)	u
N/C(=N\c1nc2c(c(=O)[nH]1)CCC2)Nc1ccccc1	-14%
NS(=O)(=O)c1cccnc1Nc1ccc(Cl)c(Cl)c1	-9%
O=C(N/N=C/c1ccco1)c1cnccn1	-13%
Cc1ccc(C)c2c(SC(C)C(=O)NCc3ccco3)nc(-c3ccccc3)nc12 (stereo unspecified)	-22%
COC(=O)C1CCCN1C(C(=O)NC1CCCCC1)c1ccc(Cl)cc1 (stereo unspecified)	-3%
COc1ccc(/C=N/c2nc3ccccc3n2C)cc1OC	-16%
N/C(=N\c1nc2c(c(=O)[nH]1)CCCC2)Nc1ccccc1Sc1ccccc1	-7%
COc1ccc(/C=C(\NC(=O)c2cccs2)C(=O)Nc2ccccc2C)cc1OC	1%
N#Cc1nc(-c2ccccc2Cl)oc1N1CCOCC1	u
Cc1ccc(NC(=S)Nc2nc(CC(=O)Nc3ccccc3)cs2)cc1	-14%
NC(=O)C1(N2CCCCC2)CCN(C2CC(=O)NC2=O)CC1 (stereo unspecified)	-4%
COC(=O)Nc1ccc(S(=O)(=O)N2CCN(CCN3C(=O)C4C5C=CC(C5)C4C3=O)CC2)cc1 (stereo unspecified)	3%
CCc1ccc(NC(=O)c2ccnc(C(C)(C)C)c2)cc1	-8%
CCOC(=O)C1=C(C)OC(N)=C(C#N)C1c1cc(OC)c2c(c1)OCO2 (stereo unspecified)	-28%
Cc1ccc(C)c(NC(=O)c2ccc3c(c2)N(Cc2ccc(F)cc2)C(=O)CS3=O)c1 (stereo unspecified)	-10%

Assay outcomes deposited in PubChem by National Center for Advancing Translational Sciences (NCATS).
